CDC25B-CDK2 inh – human CDC25B-CDK2/CyclinA binding inhibition; 94,000 compounds, 0.72% hits; z-score (no concentration beside the values); HTRF CDC25B-CDK2/CyclinA binding, anti-His/anti-Flag; hits give high values; P30305+P24941; AID 1259370;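 further: score is relative to mean and SD of negative controls; strong numbers were not always called active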
TAR Tat displ – HIV-1 TAR-Tat binding disruption; z-score (no concentration beside the values); HIV-1 TAR RNA, Tat peptide displacement FRET; hits give high values; 100,000 compounds, 0.6% hits;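 further: score is relative to mean and SD of negative controls; some compounds called inactive have numbers as strong as hits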
Starred values were filed as active, the others as inactive; nt = no result given; & = joins results of further samples.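 How the source made its calls: active means z-score from 3 up in half or more of its runs; inactive means the rest.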

compound	CDC25B-CDK2 inh	TAR Tat displ
CCn1nc(-n2cnnc2)c(NS(=O)(=O)c2ccc(C)cc2)c1C	-1.4	1.9
Cc1nc(Nc2nc3ccccc3o2)nc2c1C(=O)CC(C)(C)C2	-0.6	nt
CCOc1ccc(/C=c2/sc3nc4c(C)c(C)ccc4n3c2=O)cc1OC	-2.1	nt
Cc1cc(Nc2ccccc2)nc(-n2cc([N+](=O)[O-])cn2)n1	nt	1.4
Cc1c(N2CCN(S(=O)(=O)c3ccc(F)c(F)c3)CC2)c(=O)n(C)c(=O)n1C	nt	1.6
O=C1c2ccccc2C(Nc2ccc(S(=O)(=O)N3CCCCCC3)cc2)N1c1cccnc1 (configuration not stated)	-2	nt
Cc1ccc(-n2c(C)c(C)c3c2ncn2nc(-c4ccncc4)nc32)cc1C	-3.7	2
Cc1c(/C=N/OC(=O)c2ccccc2Cl)c(=O)n(-c2ccccc2)n1C	-1.5	nt
CCCOc1ccccc1C1NC(=O)NC(C)=C1C(=O)OCCc1ccccc1 (configuration not stated)	-0.15	nt
COc1ccc(C2C(C#N)=C(N)Oc3n[nH]c(-c4ccc5c(c4)OCO5)c32)c(OC)c1OC (configuration not stated)	0.12	nt
Cc1nc(N2CCN(c3ccccn3)CC2)nc2c1C(=O)CC(c1ccc(Cl)cc1)C2 (configuration not stated)	-3	0.17
CC(C)Cn1cc(NC(=O)NCCc2ccco2)c2ccccc2c1=O	nt	0.59
Cc1cc(N)n(C2CCS(=O)(=O)C2)n1 (configuration not stated)	-1.5	0.95
O=c1[nH]nc(-c2ccc(F)cc2)c2ccccc12	-0.73	nt
O=C(Cn1c(=O)n(Cc2ccco2)c(=O)c2ccc(C(=O)NC3CCCC3)cc21)NCc1ccco1	-0.62	-0.01
COCCNc1nc(NCc2cccc(Cl)c2)c2cnn(C)c2n1	nt	1.2
CN(C)CCCN1c2ccccc2Sc2ccc(Cl)cc21	-3.8	-0.68
COc1ccc(-c2cnc(C)o2)cc1S(=O)(=O)Nc1cc(Cl)ccc1C	nt	1.2
C/C(Nc1ccccc1F)=C1/CCOC1=O	-1.3	nt
CCOc1ccccc1CN=C1NS(=O)(=O)C(c2ccc(C(C)C)cc2)=C1C	-5.3	0.49

Further results
compound	CDC25B-CDK2 inh	TAR Tat displ
Cc1onc(-c2ccccc2)c1NC(=O)N(CCC#N)Cc1cccs1	0.29	nt
CC(C)c1ccc(NS(=O)(=O)c2ccc3c(c2)CC(=O)N3)cc1	-1.1	0.16
Cn1c(=O)c2c(-c3ccc(F)cc3)c(NCCc3ccccc3)oc2n(C)c1=O	nt	0.72
Cc1ccnc2c(N3C(=O)C4CC=C(Cl)CC4C3=O)cccc12 (configuration not stated)	-0.79	-0.05
Cc1ccc(S(=O)(=O)Nc2cc(N3CCCS3(=O)=O)ccc2C)cc1	nt	-0.57
Cc1cccc(Nc2nc(NCC3CCCO3)nc(N)c2[N+](=O)[O-])c1 (configuration not stated)	nt	-0.08
Cc1cc(C)cc(NC(=O)N2CCCC2C(=O)O)c1 (configuration not stated)	-1.3	0.87
O=C1Sc2cccc3cccc1c23	-2.2	nt
Cc1ccc2nc(Cl)c3cc(C(=O)N(CCN(C)C)Cc4ccco4)sc3c2c1	0.14	nt
CC1=C(OS(=O)(=O)c2cc(C(F)(F)F)cc(C(F)(F)F)c2)C(=O)CC1	-2.5	nt
Cc1ccc(C2OCC3(CO2)COC(c2ccc(C)cc2)OC3)cc1 (configuration not stated)	-1.8	nt
O=C(O)c1ccc2c3c(cccc13)C(=O)N(c1cccc3ccccc13)C2=O	-1.9	nt
Cc1cc(=O)n2nc(N3CCC(C(=O)NC4CCCC4)CC3)sc2n1	-0.22	2.5
Cn1c(C(=O)N2CCC(C(=O)NCCN3CCCC3)CC2)cc2sccc21	1	-0.06
COc1ccc(N2C(=O)C3CCCN3C2c2ccccc2)cc1 (configuration not stated)	-1.4	1.1
COc1cc(/C=c2\sc3nc4ccccc4n3c2=O)ccc1OCc1ccc(C)cc1	-3.5	nt
CC(=O)Nc1nc2nccc(C)n2n1	-1.3	1.7
O=C(O)c1cccc(CSc2ncn[nH]2)c1	-0.72	-0.01
O=C(CCC(=O)N1CC2CCCN2c2ccccc21)NCCC1=CCCCC1 (configuration not stated)	nt	0.09
CN(Cc1ccccc1)S(=O)(=O)c1ccc(-c2cc(C(F)(F)F)on2)s1	nt	-0.11

An excerpt of these results, with two lines to a compound:
Results follow in this order: CDC25B-CDK2 inh, TAR Tat displ
- Cc1c(/C=N/OC(=O)c2ccccc2Cl)c(=O)n(-c2ccccc2)n1C
 : -1.5, nt
- CCCOc1ccccc1C1NC(=O)NC(C)=C1C(=O)OCCc1ccccc1 (configuration not stated)
 : -0.15, nt
- COc1ccc(C2C(C#N)=C(N)Oc3n[nH]c(-c4ccc5c(c4)OCO5)c32)c(OC)c1OC (configuration not stated)
 : 0.12, nt

(listing goes on)
compound	CDC25B-CDK2 inh	TAR Tat displ
Cc1ccc(C2=NS(=O)(=O)N(C)C(C(=O)Nc3cc(C)n(CC(=O)N4CCCC4)n3)=C2)cc1	-2.7	1.4
O=S(=O)(O)c1cc2cc3ccccc3cc2[nH]1	0.75	nt
CCC(C)NS(=O)(=O)c1cc(Br)cnc1N (configuration not stated)	-0.3	2.2
CCOC(=O)C1CCCCN1c1c(-c2ccc(Cl)cc2)c(=O)c1=O (configuration not stated)	nt	-0.43
Cc1ccc(-c2nnc(NCc3ccccc3)c3ccccc23)cc1S(=O)(=O)N1CCOCC1	-17	2
CCc1ccc2nc(NC3=NCN(Cc4ccccc4)CN3)nc(C)c2c1	-0.85	0.77
O=C(COc1ccccc1F)Nc1ccccc1OCc1cc(=O)n2ccccc2n1	nt	0.52
NC(=O)c1c(NC(=O)c2nn(-c3ccc(Cl)cc3)ccc2=O)sc2c1CCCC2	1.5	0.53
O=[N+]([O-])c1ccc2c3c(ccc(Br)c13)CC2	-2.5	nt
O=[N+]([O-])c1cccc(-c2noc(COc3ccc(Cl)cc3)n2)c1	-0.76	nt
COCc1cc(C)nc2sc3c(=O)n(-c4ccc(Cl)cc4)nnc3c12	-0.96	1.1
CC(C)c1nc(NC2CCCCC2)c(C#N)c2c1COC(C)(C)C2	-1.9	1.5
O=C1CCCc2cc(S(=O)(=O)NCC3CCC(C(=O)N4CCOCC4)CC3)ccc2N1 (configuration not stated)	nt	0.92
CN(CC(=O)NC1CCCc2ccccc21)S(=O)(=O)c1ccc2[nH]c(=O)ccc2c1 (configuration not stated)	nt	-0.06
CCCCSc1nnc(-c2ccc(Br)cc2)o1	-2.6	0.63
CC1=C(C(=O)OC2CCCC2)C(c2ccc3c(c2)OCO3)C2=C(CC(C)(C)CC2=O)N1 (configuration not stated)	-1.4	0.74
COC(=O)COc1ccc2c(=O)c(Oc3cc(C)cc(C)c3)c(C(F)(F)F)oc2c1	-0.44	-1.8
Cc1ccc(N2C(=O)c3cccnc3C2Nc2cc(C)cc(C)c2)cc1 (configuration not stated)	-0.25	1.6
Cc1ccc(NS(=O)(=O)c2c(C)[nH]c(=O)[nH]c2=O)c(C)c1	nt	0.67
CCCNC(=O)c1c(NC(=O)C2COc3ccccc3O2)sc2c1CCCC2 (configuration not stated)	-1.5	0.32

More results:
compound	CDC25B-CDK2 inh	TAR Tat displ
COC(=O)C1=C(C)NC2=C(C(=O)CCC2)C1c1c(F)cccc1Cl (configuration not stated)	0.05	0.87
CN1CCc2c(sc3c2C(=O)NC(c2ccc(OCc4ccccc4)cc2)N3)C1 (configuration not stated)	-0.27	-5.5
CC(=O)CCc1oc2ccc(Cl)cc2c1-c1ccc(C)o1	-0.49	nt
Cc1ccc(CC(=O)c2cccnc2)cc1	0.05	nt
CC(C)Oc1ccc(C2CC(=O)Nc3nc(SCc4ccc(F)cc4)[nH]c(=O)c32)cc1 (configuration not stated)	-0.55	1.6
C=CCn1cc(C(=O)N2CCc3ccccc32)c(=O)c2cc(S(=O)(=O)N3CCC(C)CC3)ccc21	0.33	-0.18
CC(C)(C)C(=O)N(c1ccc(Cl)cc1)C1C=CS(=O)(=O)C1 (configuration not stated)	-2.6	1.4
CCN1CCN(C(c2cccc(F)c2)c2sc3nc(C)nn3c2O)CC1 (configuration not stated)	-1.2	nt
O=C(O)c1ccc(Cl)c2c1C1C=CCC1C(c1cccc(F)c1)N2 (configuration not stated)	-1.3	nt
Cc1cccc(-c2cc(Nc3ccccc3)nc(C)n2)c1	0.16	-0.73
Cc1ccnc(Sc2nc3c(c(=O)[nH]c(=O)n3C)n2CCCc2ccccc2)n1	-1.3	1.4
O=C(Cn1c(=O)sc2ccccc21)Nc1ccccc1C(=O)O	-0.9	nt
Cn1nc(C(=O)Nc2cc(F)ccc2F)c2c1-c1ccccc1OC2	-1.3	-0.1
CC(C)c1onc(C(=O)NC2CCCCC2)c1[N+](=O)[O-]	-0.75	0.55
CC(=O)N1c2ccc(S(=O)(=O)N3CCCC3)cc2CC1C(=O)NCc1ccc2c(c1)OCO2 (configuration not stated)	nt	0.61
COc1ccc(OC)c(NC2c3ncccc3C(=O)N2Cc2ccco2)c1 (configuration not stated)	0.03	0.82
C=CCOC(=O)C1=C(C)NC2=C(C(=O)CC(c3ccccc3)C2)C1c1ccc(O)cc1 (configuration not stated)	-0.91	-0.66
CCC(=O)N1CCc2cc(Br)cc(S(=O)(=O)N3CCN(c4ccccn4)CC3)c21	1.1	nt
CCS(=O)(=O)NCc1cn2c(C)csc2n1	0.76	0.44
Cc1ccc(CN[C@H]2CS(=O)(=O)C[C@@H]2S(=O)(=O)c2ccc(F)c(C)c2)cc1	-0.61	1.2

Looked up by compound from the list above:
compound	CDC25B-CDK2 inh	TAR Tat displ
CC(C)(C)C(=O)N(c1ccc(Cl)cc1)C1C=CS(=O)(=O)C1 (configuration not stated)	-2.6	1.4
Cc1ccnc2c(N3C(=O)C4CC=C(Cl)CC4C3=O)cccc12 (configuration not stated)	-0.79	-0.05
O=C(O)c1ccc2c3c(cccc13)C(=O)N(c1cccc3ccccc13)C2=O	-1.9	nt
O=S(=O)(O)c1cc2cc3ccccc3cc2[nH]1	0.75	nt
O=C1CCCc2cc(S(=O)(=O)NCC3CCC(C(=O)N4CCOCC4)CC3)ccc2N1 (configuration not stated)	nt	0.92

(more compounds)
compound	CDC25B-CDK2 inh	TAR Tat displ
COc1ccc(-c2nnc(SCc3ccc(Cl)cc3)o2)cc1	-2.1	2
CC12COC3(C(=O)Nc4ccc(Cl)cn4)CC1CCC32C (configuration not stated)	-2.5	2.8
CSc1nc(C)cc(OCCO)n1	-2.7	0.78
CCN(CC)C(=O)NC1=C(C#N)C(C)(C)Cc2ccccc21	-1.5	0.44
COC(=O)c1ccccc1Nc1nc(-c2ccccc2)cc(-c2ccc(C)cc2)n1	-0.42	nt
CCCOc1ccc(-c2cccc(NS(=O)(=O)c3ccccc3)c2)nn1	nt	0.3
CC1=C(c2ccc(C)c(C)c2)S(=O)(=O)NC1=NCc1ccc2c(c1)OCO2	-1.4	-2.2
CCN(CC)c1nc2c(-c3ccc(F)cc3)nnn2c2ccccc12	-1	0.85
Fc1ccc(C(Nc2ccccc2)c2nnc(-c3ccccc3)o2)cc1 (configuration not stated)	0.64	2.7
COC(=O)c1cc(S(=O)(=O)N2CCN(c3ccc(Cl)cc3)CC2)c[nH]1	nt	3.4
O=C(NC1CCCC1)c1ccc(CN2C(=O)CSc3ncccc32)cc1	nt	0.91
O=C(O)c1ccccc1C(=O)Nc1ccc2nc(SCc3nc4ccccc4[nH]3)sc2c1	-2.5	nt
Cn1c(C(=O)NC2CCCC2)cc2cc(S(=O)(=O)N3CCCCC3)ccc21	nt	-0.25
Cc1c(Cl)cccc1Nc1nc(-c2ccncc2)cs1	-2.1	nt
N#CCCN(CC1CCCO1)C(=S)NC1CC2C=CC1C2 (configuration not stated)	-0.16	nt
CCCS(=O)(=O)c1ncc(Cl)c(C(=O)Nc2sc3c(c2C(=O)OC)CCCC3)n1	-1.8	1.6
O=C(CN1C(=O)CCSc2ccccc21)NCCCSC1CCCCC1	0.43	1
O=c1[nH]nc(-c2ccc(F)cc2)cc1-c1ccccc1	-1.5	nt
Cc1ccc(-c2cnc(C3CC3)o2)cc1S(=O)(=O)N1CCOCC1	nt	1.9
O=C(NCCCN1CCN(c2ccccc2)CC1)NC1COc2ccccc2C1 (configuration not stated)	nt	0.64

Shown with two lines to a compound: 3 of the compounds above
Each structure is followed by: CDC25B-CDK2 inh | TAR Tat displ
> CSc1nc(C)cc(OCCO)n1
 : -2.7 | 0.78
> Fc1ccc(C(Nc2ccccc2)c2nnc(-c3ccccc3)o2)cc1 (configuration not stated)
 : 0.64 | 2.7
> CCCOc1ccc(-c2cccc(NS(=O)(=O)c3ccccc3)c2)nn1
 : nt | 0.3

(further entries)
compound	CDC25B-CDK2 inh	TAR Tat displ
CC(CC(=O)Nc1ccc(F)cc1)S(=O)(=O)c1cc2c3c(c1)CCN3C(=O)CC2 (configuration not stated)	nt	1.1
N#CC(=C=N)/C=C/[N+](=O)[O-]	-1	nt
CC(C)CC(=O)Oc1ccc(-n2cnnn2)cc1	-1.3	0.96
O=C(O)CCCc1ccccc1	nt	1.7&3.1
Cc1cc(-c2ccc(C)c(S(=O)(=O)N3CCCc4ccccc43)c2)on1	nt	-0.79
Cc1cccc(-c2nnc(SCc3cc(=O)c4cc(C)ccc4[nH]3)n2C)c1	nt	0.77
CCCCNc1cc(C)nc2nc(Cc3ccc(Cl)cc3)nn12	-0.82	1.8
COc1ccc(Br)cc1CNC(=O)c1cnc2sc3c(n2c1=O)CCCC3	nt	0.75
O=C(CSc1ccc2nnc(-c3cccs3)n2n1)Nc1nc2ccccc2s1	-1.2	nt
CCOc1ccccc1C1C2=C(CC(C)(C)CC2=O)Nc2nc(SCC(=O)c3ccccc3)nn21 (configuration not stated)	-2.5	0.87

Screening data: PubChem BioAssay, Center for Chemical Genomics, University of Michigan
